CSC inhib: cancer stem cell viability inhibitors, primary screen, luminescence; AID 2717, 2010; 1.1% of 300,000 active; inhibition, % at 7.5 µM; cancer stem cell-like cells viability;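 active means mean at 75% or more and at least half the replicates too; inconclusive means mean and replicates disagree; tested in HMLE shEcad cells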;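 further: 0% = median of negative and 100% = median of positive control wells; the first replicate is given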
MT1-MMP act inh: blockers of MT1-MMP proenzyme processing, primary screen, HT1080 RFP-PRO-GFP cells, GFP/RFP fluorescence; AID 651647, 2012; Matrix metalloproteinase-14 (Homo sapiens), P50281; 0.061% of 360,000 active; GFP/RFP ratio change, % at 20 µM; GFP/RFP ratio fluorescence, overnight; percent of plate control window, DMSO zero;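 active means GFP/RFP ratio change of at least 30% with cell ATP level not reduced by more than half and red fluorescence within 50% of control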; further: strong numbers were not always called active
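Compound: 20 µM single dose, 1% DMSO / System: HT1080 RFP-PRO-GFP cells / Controls: DMSO and RFP-L50D-GFP cell wells / Read-out basis: GFP/RFP fluorescence ratio / Schedule: overnight compound exposure at 37 °C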
Yeast UUG start: modulators of yeast start codon fidelity, primary screen, whole organism, S. cerevisiae, single point, plate reader. S. cerevisiae UUG-firefly luciferase reporter, luminescence/redox ratio. activity score, % at 18.7 µM. 0.13% of 350,000 active. AID 602363, 2012;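 active means replicate mean at a twofold rise or more, about +100% in these data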;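 further: firefly luciferase made from a UUG start codon reports start codon fidelity; reporter light over untreated wells divided by growth signal over untreated wells; some hits fall short of that in this replicate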
Rce1 inhib: yeast Rce1p protease inhibitors, primary screen, biochemical, fluorescence, cell-free homogeneous | 0.27% of 290,000 active | yeast membranes, quenched prenylated peptide cleavage fluorescence | AID 2563, 2010 | CAAX prenyl protease 2 (Saccharomyces cerevisiae (strain ATCC 204508 / S288c)), Q03530 | calls only;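 active means fall in fluorescence gain of 50% or more versus controls, with final raw signal at or below 3038400; inconclusive means same 50% fall but final raw signal above 3038400; inactive means fall in fluorescence gain under 50%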;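 further: plate controls were neutral control wells for no effect and wells lacking membranes for full effect; tested at 10 µM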
Env fusion inh: inhibitors of HIV-1 Env-driven cell-cell fusion, primary screen, HeLa-JRFL effector, CEM21 target cells, luciferase; inhibition, % at 12.3 µM; 1.1% of 360,000 active;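 active means mean replicate inhibition score of at least 50 and every replicate individually at or above 50; inconclusive means only one of the two criteria met; inactive means mean below 50 and not all replicates reaching 50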;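 further: 0% = plate neutral controls and 100% = maraviroc near 300 nM; one replicate is shown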
eIF4H FP inh: human eIF4H binding inhibitors, primary screen, translation initiation inhibitor project, biochemical, uHTS, fluorescence polarization | Eukaryotic translation initiation factor 4H (Homo sapiens), Q15056 | eIF4H fluorescence polarization binding assay | inhibition, % at 35 µM | 0.94% of 290,000 active;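 active means 50% or more with normal probe brightness, or confirmed in later tests; inconclusive means above 50% with abnormal brightness, or retests that disagree; inactive means below 50% or failed in later tests; about a fifth of its hits are not listed in these tables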;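 further: calls also rest on retests at 20 µM and on dose response follow-up; 0% = protein and probe with vehicle and 100% = probe without protein; strong numbers were not always called active; many hits fall short of the cut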
PABP FP inh: PABP poly(A) RNA binding inhibitors, primary screen, biochemical, fluorescence polarization, uHTS; Polyadenylate-binding protein 1 (Homo sapiens), P11940; inhibition, % at 35 µM; 1% of 290,000 active; AID 2014, 2009;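 active means 50% or more with normal probe brightness, or confirmed in later tests; inconclusive means above 50% with abnormal brightness, or retests that disagree; inactive means below 50% or failed in later tests; about a fifth of its hits are not listed in these tables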;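 further: calls also rest on retests at 20 µM and on dose response follow-up; controls were probe without protein and protein plus probe with vehicle; some compounds called inactive have numbers as strong as hits; many hits fall short of the cut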
Target sequence (P11940 whole entry, looked up): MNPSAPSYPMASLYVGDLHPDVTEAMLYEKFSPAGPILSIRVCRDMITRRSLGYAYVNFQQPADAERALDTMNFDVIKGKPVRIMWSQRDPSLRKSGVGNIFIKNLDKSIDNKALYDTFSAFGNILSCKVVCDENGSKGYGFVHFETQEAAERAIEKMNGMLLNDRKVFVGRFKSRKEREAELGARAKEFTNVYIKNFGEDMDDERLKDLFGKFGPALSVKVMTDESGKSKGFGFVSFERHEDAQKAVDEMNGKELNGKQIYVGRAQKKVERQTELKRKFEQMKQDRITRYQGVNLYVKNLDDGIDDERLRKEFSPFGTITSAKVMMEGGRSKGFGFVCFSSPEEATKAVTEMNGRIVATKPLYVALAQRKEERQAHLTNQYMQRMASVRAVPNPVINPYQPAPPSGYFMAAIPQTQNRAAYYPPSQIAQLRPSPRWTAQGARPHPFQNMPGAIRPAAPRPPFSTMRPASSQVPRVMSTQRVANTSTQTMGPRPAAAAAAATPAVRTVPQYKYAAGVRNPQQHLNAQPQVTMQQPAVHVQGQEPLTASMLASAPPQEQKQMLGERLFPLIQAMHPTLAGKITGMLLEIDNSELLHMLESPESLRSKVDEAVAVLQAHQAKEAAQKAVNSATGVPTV
eIF4H FP inh retest: second read-out of eIF4H FP inh, no call of its own (marks repeat the call); inhibition, %; compound at 20 µM; confirmation average;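 mean of two retest wells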
PABP FP inh retest: further read-out of PABP FP inh, marked with its call; inhibition, %; compound at 20 µM; confirmation repeats;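 mean of two retest wells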
MT1-MMP act inh RFP: recorded beside MT1-MMP act inh, whose call it bears; RFP signal change, %; measured here: RFP expression control read;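 0 = vehicle wells; hits needed this value within 50% of zero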
* marks the source's active call; other numbers are inactive results; i = inactive; ? = inconclusive; / = no result given. This is a subset. The share of hits here may be higher or lower than overall.

SMILES	CSC inhib	MT1-MMP act inh	MT1-MMP act inh RFP	Yeast UUG start	Rce1 inhib	Env fusion inh	eIF4H FP inh	PABP FP inh	others
CCCc1ccc(-c2c(C)sc(NC(=O)c3ccnn3C)c2C#N)cc1	/	0	-29	-19	i	?	-7	1
CC1CCCN(S(=O)(=O)c2ccc3c(c2)C(C)(C)C(=O)N3C)C1 (centres undefined)	/	1	2	-2	i	/	-4	14
O=C(Nc1cc(S(=O)(=O)N2CCOCC2)ccc1N1CCOCC1)C1CCCO1 (centres undefined)	-7	0	3	/	i	3	8	-5
Cc1c(C(=O)O)cccc1-n1c(C)cc(C=O)c1C	-3	-1	5	-18	i	-2	72*	-8	eIF4H FP inh retest=67*;PABP FP inh retest=50
CCc1cccc(C)c1NC(=O)COC(=O)CSCc1ccccc1	14	2	2	-10	/	25	/	/
COc1ccccc1CNC(=O)Cn1c(=O)c2cccn2c2cccnc21	0	-1	1	-8	i	2	12	12
Nc1nc(-c2ccco2)nn1C(=O)c1cccnc1	/	2	-1	-9	i	-10	-4	5
S=c1nc(-c2cccc(Cl)c2)[nH][nH]1	-10	1	1	/	i	-5	5	0
O=Cc1ccc(Sc2nnc(-c3ccccc3)o2)c([N+](=O)[O-])c1	45	7	2	-13	i	/	-5	6
CNC(=O)C1(C)C=CCN1C(=O)c1ccccc1 (centres undefined)	2	-2	2	-22	i	-16	-1	1
Cc1cccc(/C=N/n2c(C)nnc2C)c1	-5	-1	-2	-4	i	/	-2	-14
CCc1cc(=O)[nH]c(SCCc2ccccc2)n1	-7	4	3	-3	i	/	-17	14
Cc1cccc(N=c2oc3cc(O)ccc3cc2C(N)=O)c1	8	-30	-12	-6	i	-11	2	0
COc1ccc(S(=O)(=O)Nc2ccc3c(c2)C(=O)N([C@H](C)CO)C[C@H](C)[C@@H](CN(C)S(=O)(=O)c2ccccc2)O3)cc1	-17	0	-4	-18	/	-21	/	/
COc1ccc(-n2c(=S)[nH]c3cc(C(=O)Nc4ccccc4OC)ccc3c2=O)c(OC)c1	-6	-1	-11	/	i	3	-9	6
CCCS(=O)(=O)NC(=O)C1(C)CCN(C(=O)c2c(F)ccc(C)c2F)C1 (centres undefined)	/	4	3	-18	/	-36	/	/
N#CCCN(C(=S)NC(=O)c1ccco1)c1ccccc1F	-4	2	-1	/	i	8	1	-1
CC(Cn1nnc2ccccc21)C(=O)O (centres undefined)	-12	0	2	/	i	0	12	-1
C=CCc1cccc(/C=N/c2ncn[nH]2)c1O	9	-1	0	-17	i	-82	16	11
COc1ccc(OCc2nn[nH]n2)cc1	-11	-3	-3	-5	i	8	-10	38

Next section; it opens with the five that closed the last part.
SMILES	CSC inhib	MT1-MMP act inh	MT1-MMP act inh RFP	Yeast UUG start	Rce1 inhib	Env fusion inh	eIF4H FP inh	PABP FP inh	others
CCCS(=O)(=O)NC(=O)C1(C)CCN(C(=O)c2c(F)ccc(C)c2F)C1 (centres undefined)	/	4	3	-18	/	-36	/	/
N#CCCN(C(=S)NC(=O)c1ccco1)c1ccccc1F	-4	2	-1	/	i	8	1	-1
CC(Cn1nnc2ccccc21)C(=O)O (centres undefined)	-12	0	2	/	i	0	12	-1
C=CCc1cccc(/C=N/c2ncn[nH]2)c1O	9	-1	0	-17	i	-82	16	11
COc1ccc(OCc2nn[nH]n2)cc1	-11	-3	-3	-5	i	8	-10	38
CCOC(=O)C(C)Oc1ccccc1C1NC(=O)NC(C)=C1C(=O)Nc1ccc(C)c(C)c1 (centres undefined)	30	-2	-3	-7	i	28	3	-3
CC12C(=O)N(c3ccccc3C(=O)O)C(=O)C1C1C=CC2C1 (centres undefined)	7	3	3	/	i	/	-3	7
CN(C)CCNC(=S)Nc1ccccc1C(C)(C)C	-14	-1	3	3	i	-8	3	2
O=c1[nH]n2c(C(F)(F)F)cc(C3CC3)nc2c1N=Nc1ccccc1	21	14	11	/	i	2	-6	0
Cc1cccc(N2C(=O)C3CCCN3C2=S)c1 (centres undefined)	6	-3	1	-17	i	13	7	4
O=S1(=O)CC(N2CCN(c3ccccn3)CC2)CN1C1CCCCC1 (centres undefined)	/	0	3	-5	/	-19	/	/
CCOC(=O)c1cnc2c(-c3cccc(Br)c3)cnn2c1C	-3	-1	1	/	i	-56	-4	4
COCCN1CCN(C(=O)c2cc(COc3cncc(Cl)c3)on2)CC1	1	2	-6	5	i	10	-11	-1
CCc1c(C)nc2cc(-c3cccc(Br)c3)[nH]n2c1=O	-7	-14	-15	-21	i	-60	-2	10
COc1cc(/C=C(\NC(C)=O)C(=O)Nc2ccc(NC(C)=O)cc2)ccc1OC(C)=O	1	2	6	/	i	-19	-3	15
CSc1cccc(NC(=S)N(CCCN2CCCC2)Cc2cccs2)c1	-8	1	2	/	i	-13	-4	10
COc1ccc(S(=O)(=O)NCc2ccc(C(=O)N(C)Cc3ccco3)cc2)cc1	-12	4	-5	/	i	/	4	9
O=C(COC(=O)Cc1n[nH]c(=O)c2ccccc12)Nc1ccc(Cl)cc1F	-7	0	0	/	i	-6	-1	16
Cc1ccc(C)c(NC(=O)CN(C)C(=O)c2cccc(S(=O)(=O)N3CCN(Cc4ccccc4)CC3)c2)c1	-16	-4	-23	18	i	?	-4	15
COc1ccc(Oc2c(Cl)cnn(-c3ccccc3)c2=O)cc1	22	1	4	-11	i	/	-5	-10
NNS(=O)(=O)c1ccc(Cc2ncc(C(F)(F)F)cc2Cl)s1	4	2	2	-11	i	/	2	-3
N#C/C(C(=O)Oc1ccccc1)=C1\C=Cc2ccccc2N1	-6	-4	-2	-6	/	-82	6	8
CCSC1=NN2CCS(=O)(=O)N=C2S1	-2	1	-5	/	i	13	-13	7
Cc1cc(C)c(S(=O)(=O)Nc2ccccn2)c(C)c1	-5	3	0	-8	i	7	-1	2
Cc1ccccc1NC(=O)Cc1nnc(SCC(=O)c2ccc(Br)cc2)n1C	/	4	-3	-15	i	-10	-5	2
Cc1ccc(C(=O)OCC(=O)NC2CCCCC2)s1	9	0	1	/	i	-8	2	-6
C=CCn1c(O)c(N=Nc2ccccc2[N+](=O)[O-])c2ccccc21	/	5	-3	-8	/	-101	/	/
Cc1cccc(N2CCN(c3cccc(C)c3)C2c2cccnc2)c1	38	-11	-13	-20	i	-11	-2	10
Cc1cccc(C(=O)OCCN2CCOCC2)c1	4	1	3	-5	i	-37	-5	4
Cc1[nH]c2ccccc2c1Cc1n[nH]c(=S)o1	-11	0	5	-15	i	8	-3	-3
O=C1c2ccccc2S(=O)(=O)c2cc(C(=O)N3CCCC3)ccc21	5	1	2	13	i	-33	/	/
O=C(Cn1nnc(-c2ccc(N3CCOCC3)cc2)n1)OC1CCCCC1	-5	3	-3	-32	i	-20	-7	-3
O=C(CSc1nc2ccc(Nc3nc(N4CCOCC4)nc(N4CCOCC4)n3)cc2s1)NCc1ccco1	-14	-2	-11	-5	i	6	-1	3
CC(=O)N1N=C(c2ccco2)CC1c1ccc(Cl)o1 (centres undefined)	0	0	2	-7	i	-3	/	/
CC(C)(CC(=O)O)CC(=O)Nc1ccccc1Oc1ccccc1	23	2	1	/	i	-2	-1	7
CC(C)CCNC(=O)c1ccc2c(SCC(=O)O)c3c(nc2c1)CCCC3	-16	3	1	-6	i	20	2	4
Cc1c(Cl)cccc1NC(=S)NNS(=O)(=O)c1ccc([N+](=O)[O-])cc1	9	-3	-1	-11	i	-20	-5	3
CCOc1ccc(-n2c(=O)c3c(C)c(C(=O)N(C)C)sc3n(CC(=O)Nc3ccccc3F)c2=O)cc1	-12	0	5	/	i	-4	-1	-8
Cc1[nH]c2ccccc2c1/C=N/NC(=O)CNC(=O)c1ccc2c(c1)OCCO2	-12	6	3	/	i	18	-7	7
Cc1cc(C)c(OCCN2CCCC2)c(Cl)c1	2	7	-2	2	i	0	-8	-4
Cc1ccc(-c2nsc(SCC(=O)Nc3ccc4c(c3)OCO4)n2)cc1	-1	1	-2	/	i	9	-3	-11
CCOc1ccc(N(CC(=O)Nc2ccc(OC)cc2)S(C)(=O)=O)cc1	-4	0	-4	10	i	/	-1	-10
CC(CC(=O)Nc1ccc(Cl)c([N+](=O)[O-])c1)c1ccccc1 (centres undefined)	15	-3	-5	6	i	11	-9	7
O=c1c2c(-c3ccc(Cl)cc3)csc2nc2n1CCC2	5	3	4	-14	i	5	1	-6
COc1ccc(C(=O)Nc2cc(-c3ccc(C)cc3)no2)cc1	17	0	-4	-10	i	-12	-1	1
Cc1ccc(/C=N/N=C/c2ccc(C)cc2)cc1	-1	7	5	-17	i	-3	2	-1
O=C(CN1CCN(c2ccc(Cl)cc2)CC1)NCc1ccccc1	15	2	-3	-11	i	16	2	5
N#CC(Cc1cc2ccccc2n1S(=O)(=O)c1ccccc1)OCc1ccccc1 (centres undefined)	/	-2	-5	-4	/	1	/	/
CCOCCCNC(=O)C(NC(=O)C1CCC(=O)N1)c1ccc(C)cc1 (centres undefined)	7	1	3	-15	i	0	-8	3
Nn1c(Cc2ccccc2F)nnc1SCCOc1ccc(Cl)cc1	-9	3	3	/	/	29	9	-8
COc1ccc(NC(=O)CN(C)C(=O)c2cccc(S(=O)(=O)Nc3ccccc3Cl)c2)cc1	-13	1	-1	-7	i	4	/	/
CCC(C)NS(=O)(=O)c1ccc(S(=O)(=O)Nc2cc3c(cc2C(C)=O)OCO3)cc1 (centres undefined)	3	4	-2	-13	i	/	2	0
COc1ccc(OC)c(NC(=S)N2CCC(C(O)(c3ccccc3)c3ccccc3)CC2)c1	-31	-16	-5	-25	i	4	-7	-11
O=C(NCc1cccnc1)C1CC(=O)N(C2CCCCC2)C1 (centres undefined)	-2	1	0	-12	i	-30	1	4
COc1cc(CNn2cn[nH]c2=S)cc(Cl)c1OCc1ccccc1	9	6	-1	-21	i	/	1	-6
COc1cccc(-n2cc(CNC(=O)C3CCC(=O)N(C4CC4)C3)cn2)c1 (centres undefined)	-22	4	-3	4	i	-4	11	10
O=C(CCN1C(=O)c2ccccc2C1=O)N1CCN(c2ccccc2)CC1	1	-6	3	-3	i	10	5	-3
Cc1nc(N)nc2c1CCCC2	4	-1	2	-21	i	/	1	0
O=C(CSc1nc(-c2ccco2)cc(C(F)(F)F)n1)N1CCCc2ccccc21	0	-7	-9	-10	i	/	6	8
NS(=O)(=O)c1cccc(NC(=O)COC(=O)CC2CC3CCC2C3)c1 (centres undefined)	-6	5	5	/	i	11	4	-15
CCOc1cc(NC(=S)NCC2CCCO2)c(OCC)cc1NC(=O)c1cccc(F)c1 (centres undefined)	-8	0	-1	/	i	-4	3	-2
O=C(O)CCC(=O)NC1CCCCC1	-12	4	0	-11	i	-21	-4	3

Bioassay records: PubChem BioAssay, several laboratories
